From PubChem
StopGo reporter: High Throughput Screening for Foot and Mouth Disease Virus Antivirals; Potency, µM (series often up to 57.9 µM), inactives show at the top dose signal change, negative = less light; 1.2% of 410,000 active; human cells with a luciferase reporter of 2A StopGo recoding; control for the full effect not named in the record; active = well fitted falling curve with a large enough effect; inconclusive = small, poorly fitted or top-dose-only effect; inactive = no such curve, though single readings can be large or run the other way; tested in HEK293T cells; note: % is set by controls: 0 for no effect and ±100 for the full control effect; nearly all actives have a fitted effect of over 45% in size; luciferase light after 4 h
MARV entry inh: qHTS for inhibitors of binding or entry into cells for Marburg Virus. Marburg virus pseudotyped entry inhibition, cell reporter; control for the full effect not named in the record; about a third of the inactives were read at about 46 µM. Potency, µM (top dose mostly 37.8 µM), for inactives: at the highest dose activity change, negative = inhibition, hits mostly inhibitors. 1.8% of 300,000 active. AID 540276, 2011; active = well fitted inhibition curve with a large enough effect; inconclusive = small, poorly fitted or top-dose-only effect, or effect the other way; inactive = flat fitted curve, though single readings scatter; tested in HEK293 cells; about a fifth of its hits are not listed in these tables; note: % is set by controls: 0 for no effect and ±100 for the full control effect; luciferase read-out
SARS PLP yeast: qHTS of Yeast-based Assay for SARS-CoV PLP; S. cerevisiae expressing SARS-CoV PLpro, growth rescue; control for the full effect not named in the record; Potency, µM (top dose mostly 32.9 µM), for the others: at the top dose activity, positive = growth rescue; 0.19% of 330,000 active; AID 485353, 2010; note: 0% is about no effect; nearly all actives have a fitted effect of over 55% in size; growth read by luminescence after 48 h
LASV entry inh: qHTS for Inhibitors of binding or entry into cells for Lassa Virus | Lassa virus pseudotype entry inhibition, cell reporter; control for the full effect not named in the record | Potency, µM (doses to about 37.9 µM), for inactives: top-dose activity change, negative = inhibition, usual class: inhibitors | 1.2% of 300,000 active | AID 540256, 2011; active means well fitted inhibition curve with a large enough effect; inconclusive means small, poorly fitted or top-dose-only effect, or effect the other way; inactive means flat fitted curve, though single readings scatter; tested in HEK293 cells; note: % is set by controls: 0 for no effect and ±100 for the full control effect; nearly all actives have a fitted effect of over 50% in size; luciferase read-out
NS1 function inh: qHTS Assay for Inhibitors of Influenza NS1 Protein Function; S. cerevisiae slowed by influenza A NS1, growth recovery by OD600; Potency, µM (titrated, usually from 46.1 µM), inactives show at the highest dose activity, positive = more growth; 0.4% of 270,000 active; AID 2326, 2010; note: actives are rising curves; nearly all actives have a fitted effect of over 50% in size
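OD600 was taken as the measure of yeast growth restored by compound in an NS1-expressing S. cerevisiae strain. Cells had been washed out of glucose medium and diluted 1:100 into galactose -URA medium, pH 6.0.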
RE007 growth inh: qHTS Assay for Inhibitors of the HIV-1 protein Vpr. S. pombe RE007 Vpr strain, BacTiter-Glo ATP luminescence, 24 h; control for the full effect not named in the record. AID 651644, 2012. Potency, µM (top dose mostly 92.2 µM), for the others: at the highest dose activity change, negative = less growth. 0.21% of 360,000 active; active = well fitted falling curve with a large enough effect; inconclusive = small, poorly fitted or top-dose-only effect; inactive = no such curve, though single readings can be large or run the other way;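 note: % is set by controls: 0 for no effect and ±100 for the full control effect; nearly all actives have a fitted effect of over 50% in size; the assay follows cell death caused by Vpr and the record does not say whether a fall means rescue or toxicity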
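Fission yeast RE007 carrying one integrated HIV-1 vpr copy, seeded at OD 0.01 in PMG+AL medium with 23 nL pinned compound. Grown 24 h at 30 degrees; viability read by BacTiter-Glo luminescence after 5 min.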
Cruzain inh noDet: qHTS Assay for Promiscuous and Specific Inhibitors of Cruzain (without detergent). Potency, µM, inactives show max response, negative = inhibition, hits mostly inhibitors. AID 1476, 2009. 2.3% of 200,000 active. purified cruzain, Z-FR-AMC fluorescence, no detergent; active = well fitted curve in the direction sought with a large enough effect; inconclusive = small, poorly fitted or top-dose-only effect, or another doubt; inactive = no such curve, though single readings can be large; an effect the other way counts as inactive or inconclusive;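 note: plate controls were enzyme without inhibitor for no effect and buffer without enzyme for full effect; nearly all actives have a fitted effect of over 40% in size; top concentration of the series not given in the record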
Target sequence (P25779 123-467 limits assumed): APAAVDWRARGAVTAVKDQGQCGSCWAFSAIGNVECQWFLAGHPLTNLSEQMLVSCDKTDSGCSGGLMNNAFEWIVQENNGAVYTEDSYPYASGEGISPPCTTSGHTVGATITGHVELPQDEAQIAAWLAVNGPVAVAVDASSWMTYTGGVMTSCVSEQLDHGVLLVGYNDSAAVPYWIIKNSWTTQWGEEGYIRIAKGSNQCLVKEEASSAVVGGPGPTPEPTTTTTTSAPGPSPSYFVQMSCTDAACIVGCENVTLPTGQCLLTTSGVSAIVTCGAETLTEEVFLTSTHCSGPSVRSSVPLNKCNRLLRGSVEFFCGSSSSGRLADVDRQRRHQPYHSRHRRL
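Detergent-free condition (0.00005% Triton X-100) in acetate buffer pH 5.5 with DTT. 1.5 nM enzyme and compound were pre-mixed 15 min, then 2 uM Z-FR-AMC substrate added; reaction progress from fluorescence change between first and third reads (60 s).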
Cruzain inh Det: qHTS Assay for Promiscuous and Specific Inhibitors of Cruzain (with detergent) | Potency, µM, without a hit: max response, negative = inhibition, usual class: inhibitors | 0.43% of 200,000 active | purified cruzain, Z-FR-AMC fluorescence, 0.01% Triton; active = well fitted curve in the direction sought with a large enough effect; inconclusive = small, poorly fitted or top-dose-only effect, or another doubt; inactive = no such curve, though single readings can be large; an effect the other way counts as inactive or inconclusive;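 note: plate controls were neutral wells for no effect and buffer without enzyme for full effect; nearly all actives have a fitted effect of over 40% in size; top concentration of the series not given in the record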
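Detergent-containing arm of a paired screen for aggregation-based inhibition: 0.01% Triton X-100 present. Cruzain at 1.5 nM cleaved 2 uM Z-FR-AMC at pH 5.5 with 5 mM DTT; AMC fluorescence gain over 60 s measured activity.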
* = called active by the depositor; ? = inconclusive; . = not tested or not shown; & = joins results of further samples; [ ] = another dose, or the depositor's remark. Unless noted, calls come from the whole dose curve; as a rule, active means well fitted rising curve with a large enough effect; inconclusive means small, poorly fitted or top-dose-only effect; inactive means no such curve, though single readings can be large or run the other way. Potency is the fitted concentration of half-maximal effect.

smiles | StopGo reporter | MARV entry inh | SARS PLP yeast | LASV entry inh | NS1 function inh | RE007 growth inh | Cruzain inh noDet | Cruzain inh Det
CC(=O)N1CCc2c(sc(NC(=O)CCS(=O)(=O)c3ccccc3)c2C#N)C1 | 3% | ? | 0% | -3% | -4% | 7% | . | .
CN1c2ccc(Cl)cc2C(=O)NC1c1ccc([N+](=O)[O-])s1 (stereo unspecified) | 11% | -23%[46.1 µM] | 0% | 14% | 1% | -3% | . | .
O=C(Nc1ccc(-c2nc3cc(Cl)ccc3o2)cc1)c1cc2ccccc2o1 | -8% | . | . | 14%[46.1 µM] | . | . | 6% | -0.1%
CN(C(=O)c1ccc(-c2nn(C)c(=O)c3ccccc23)cc1)c1ccccc1 | ? | -23% | 5% | -4% | -12% | 1%[3.69 µM] | -3% | -2.3%
O=C(NC(Cc1c[nH]c2ccccc12)c1nnc2n1CCCCC2)c1ccc(Cl)cc1 (stereo unspecified) | 41%[activator] | ? | 0% | -6% | 13% | 4% | 4% | -3.1%
N#Cc1nc(Cc2cccc3ccccc23)oc1N1CCOCC1 | -7% | 3% | -1% | 5% | 3% | 9% | 8% | -2.6%
CC(=O)c1cccc(NC(=S)NC(=O)c2ccccc2Br)c1 | 0% | -2% | 5% | 7% | ? | 2% | 3% | -5.1%
COC(=O)C(C)(C)ONC(=O)Nc1ccccc1Br | -8% | 0% | 23% | ? | -11% | -6% | 4% | -0.4%
CCCCNC(=O)COc1ccccc1[N+](=O)[O-] | 29% | 0% | 3% | 9% | -13% | -8% | 3% | -2.5%
CN1CCC2(CC1)CC(NC=O)c1ccccc1O2 (stereo unspecified) | -12% | -5%[46.1 µM] | 0% | -1% | 0% | -3% | . | .
CCOc1ccc(NC(=O)C(C)Oc2ccccc2C(=O)Nc2ccc(C)c(Cl)c2)cc1 (stereo unspecified) | 26% | -24% | -18% | -7% | 5% | 1% | ? | -1.6%
COc1ccc(NC(=O)CSc2nnc(C)c3ccccc23)cc1 | ? | . | -3% | . | -3% | 3% | . | .
C/C(=N\N1CCN(c2ccccc2)CC1)c1cccs1 | 6% | 6%[46.1 µM] | -3% | 9% | -1% | -25% | . | .
O=C(CSc1nnc(-c2ccc(OC(F)F)cc2)o1)N1CCOCC1 | . | 2% | -5% | 28% | -13% | 13% | 8% | 7.7%
Cc1cc(C(=O)CSc2nnc(-c3ccncc3)n2-c2ccccc2)c(C)n1C | ? | -26% | -3% | 1% | 13% | -6% | ? | -3.8%
CCc1ccc2oc(C(=O)N(Cc3cccc(Cl)c3)Cc3ccco3)c(C)c2c1 | -20% | 4%[46.1 µM] | . | -18%[46.1 µM] | . | . | ? | -4.2%
CCOC(=O)c1[nH]c2ccccc2c1NC(=O)Nc1ccc(OC)cc1 | -1% | -21% | 0% | -12% | 10% | -20% | 6% | 3.7%
COc1ccc2oc(=O)c(C(=O)N3CCCc4ccccc43)cc2c1 | . | ? | -6% | ? | -3% | -7% | -7% | -3.8%
O=C(NCCCn1ccnc1)C(Cc1ccccc1)N1C(=O)c2ccccc2C1=O (stereo unspecified) | 8% | 1% | -1% | 18% | 9% | 4% | -3% | -2.4%
CCOC(=O)c1ccccc1N/C=C/C(=O)c1ccccc1 | 3% | 10% | . | 12% | . | -10% | . | .
CC(C)OC(=O)C1=C2SCC(=O)N2C(N)=C(C#N)C1 | 7% | 29% | -2% | 3% | 9% | 2% | -1% | -2.2%
O=C(NCc1cccnc1)C(=O)NCC(c1cccnc1)N1CCN(c2ccccc2F)CC1 (stereo unspecified) | 0% | . | . | -3%[46.1 µM] | . | . | ? | -4.7%
CCCN(CCC)C(=O)Cn1c(=O)c2ccccc2n2c(=S)sc(-c3ccccc3C)c12 | ? | ? | 4% | 3% | 5% | 3% | ? | -3.4%
COC(=O)CSc1nnc2n(-c3ccccc3)c(=O)c3c4c(sc3n12)COC(C(C)C)C4 (stereo unspecified) | -2% | 3%[46.1 µM] | . | 0%[46.1 µM] | . | . | -9% | -0.2%
COC(=O)C(CCCCN1C(=O)C2C3C=CC(C3)C2C1=O)N1C(=O)C2C3C=CC(C3)C2C1=O (stereo unspecified) | -19% | 3% | -16% | 21% | -3% | 14% | -3% | -2.2%
Cc1cc(=O)oc2c(C)c(OCC(=O)Nc3cccnc3)ccc12 | 4% | . | 4% | . | 5% | 9% | . | .
CC1=NN(c2ccccc2)C(=O)/C1=C/c1c(O)n(-c2ccc(F)c(Cl)c2)[nH]c1=O | 16% | ? | -26% | 20% | -6% | 28% | -6% | 22µM*
O=C(COC(=O)c1ccc(Br)o1)NCCNC(=O)COC(=O)c1ccc(Br)o1 | -18% | 22% | . | 8% | . | 1% | . | .
O=C(NCCc1ccccc1F)C1CCCN1S(=O)(=O)c1ccc2ccccc2c1 (stereo unspecified) | -12% | ? | -32% | -13% | -6% | -10% | ? | -6.4%
O=C(NCCSCc1ccccc1)C1CCN(S(=O)(=O)Cc2ccccc2)CC1 | -21% | -23%[46.1 µM] | . | -4%[46.1 µM] | . | . | 13% | -1.8%
CCc1ccccc1NC(=O)c1cc(S(=O)(=O)N(C)C)ccc1N1CCCC1 | -7% | 6% | 3% | -11% | 14% | -13% | . | .
COC(=O)C1=C(C)Nc2nnnn2C1c1cccnc1 (stereo unspecified) | -8% | -1% | 20% | 12% | 20% | -19% | 1% | -3.8%
O=C(O)/C=C/C(=O)NC1CCCCC1 | -16% | -2% | 15% | 8% | 0% | -4% | 6% | 2.1%
CCS(=O)(=O)N1CCN(c2ccc(C(=O)NC3C4CC5CC(C4)CC3C5)cc2[N+](=O)[O-])CC1 (stereo unspecified) | 10% | -13% | -4% | 0% | -1% | -1% | ? | -0.9%
COc1cc(C(=O)Nc2ccc(NC(=O)c3ccccc3)nc2)cc(OC)c1OC | -6% | ? | -4% | -21%[46.1 µM] | 9% | 1% | . | .
Cc1cc(N2CCOCC2)n2ncc(-c3ccc(Cl)cc3)c2n1 | -16% | -2%[46.1 µM] | 0% | -16% | 2% | -5% | . | .
O=C(NCCCNCc1ccccc1)/C(=N\O)c1ccccc1 | -8% | -4%&-4%[46.1 µM] | 1% | 29% | 4% | 0% | -3% | 3.1%
Cc1cc(C)cc(SCc2noc(C(=O)NCCCN3CCOCC3)c2C(=O)NCCCN2CCOCC2)c1 | -5% | . | 0% | . | 6% | -4% | . | .
COc1cccc(-c2cn3ncsc3n2)c1 | 0% | ? | . | ? | . | . | 6% | -2.3%
Cc1cccc(N(C(=O)c2ccco2)C(C(=O)NC2CCCC2)c2ccco2)c1C (stereo unspecified) | -8% | ? | 18% | . | 24% | -2% | . | .
O=[N+]([O-])c1ccc2nc(-[n+]3c(-c4ccccc4)cc(-c4ccccc4)cc3-c3ccccc3)[nH]c2c1 | 0% | ? | -17% | 23µM* | 2% | 3% | ? | -11%
Cc1onc(-c2c(Cl)cccc2Cl)c1C(=O)ONC(=O)c1cc(C(F)(F)F)cc(C(F)(F)F)c1 | ? | 16% | 0% | 10% | -1% | -4% | . | .
Cc1cc(S(=O)(=O)Nc2ccc(-c3ccc(N4CCCCC4)nn3)cc2)c(C)cc1Cl | 53%[activator] | . | . | ? | . | . | -7% | -1.3%
CN(C)CCSc1nnc(-c2ccccc2)o1 | 19% | 11% | 0% | 15% | 4% | 8% | 0% | -1.8%
Brc1ccc(/C=N/Nc2ncnc3c2cnn3Cc2ccccc2)cc1 | -1% | 7% | -1% | -14% | 0% | 9% | ? | 8.6%
CSc1nc(O)c(/C=C2\C=Nc3ccccc32)[nH]1 | 62%[activator] | ? | -3% | 0% | -18% | 5% | -14% | -16%
COc1ccc(OC)c(-n2c(SCC(N)=O)nnc2-c2c[nH]c3ccccc23)c1 | -6% | . | 0% | . | -2% | 0% | -9% | -3.0%
Cc1nc2ccc(S(=O)(=O)N(CC(=O)Nc3ccc(F)cc3)Cc3ccccc3)cc2s1 | -10% | . | . | 11%[46.1 µM] | . | . | 27% | -6.3%
C[C@H](NC(=O)c1ccco1)C(=O)Nc1ccc(C#N)cc1 | 4% | 14%[46.1 µM] | -4% | 5%[46.1 µM] | 1% | -9% | . | .
Cc1ccc(NC(=O)NCc2ccccn2)cc1 | 33%[activator] | ? | 12% | 2%[46.1 µM] | 7% | 12% | . | .
O=C(O)CC(CC(=O)Nc1ccccc1C(=O)O)c1ccccc1 (stereo unspecified) | -20% | . | -2% | . | -1% | -4% | . | .
COCc1cc(CN2CCN(CCc3ccccc3)C(CCO)C2)ccc1OC (stereo unspecified) | -20% | 4% | 0% | -1% | 4% | 5% | . | .
CCCCCCCCc1nc(=S)[nH][nH]1 | -23% | -3% | -13% | -22% | -2% | 78% | 6% | 0.0%
CCOCCCNC(=O)C(c1ccc(OC)cc1)N(Cc1cccs1)C(=O)c1ccccn1 (stereo unspecified) | -1% | -7%[46.1 µM] | 4% | ? | . | 15% | . | .
COc1ccc(N2CCN(C(=O)c3cc4cc5ccc(Cl)cc5nc4o3)CC2)cc1 | -15% | 4%[46.1 µM] | . | 24%[46.1 µM] | . | . | 7% | 0.3%
O=S(=O)(c1ccc2c(c1)OCCO2)N1CCN(Cc2ccc3c(c2)OCO3)CC1 | ? | 0% | -8% | 1% | -48% | -3% | 12% | 4.2%
COC(=O)CNc1nc(-c2ccccc2F)nc2ccccc12 | ? | ? | -28% | 1% | -49% | -8% | 4% | 1.1%
O=C(O)C1CCCCC1C(=O)NCCCN1CCOCC1 (stereo unspecified) | -15% | 4% | 1% | -7% | 4% | -13% | -7% | 6.6%
CCN(CC)C(=O)c1ccc(NC(=O)c2ccc3c(c2)NC(=O)CS3)cc1 | 1% | 1% | 3% | 3%[46.1 µM] | . | -8% | . | .
